UUG fidelity – alters start codon recognition fidelity in yeast. S. cerevisiae UUG-firefly luciferase reporter, luminescence/redox ratio. activity score, % at 18.7 µM. hit rate 0.13% among 350,000;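 active = replicate mean at a twofold rise or more, about +100% in these data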;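 also: firefly luciferase made from a UUG start codon reports start codon fidelity; reporter light over untreated wells divided by growth signal over untreated wells; some hits fall short of that in this replicate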
An asterisk follows results filed as active. A portion of the library. The share of hits here may be higher or lower than overall.

SMILES | UUG fidelity
CN1c2ccc(Br)cc2[C@@H]2[C@@H](CCN2C(=O)Nc2ccc(F)cc2)[C@H]1CO | 2.8
C[C@H]1CN([C@@H](C)CO)C(=O)c2cccc(NC(=O)C3CCOCC3)c2O[C@@H]1CN(C)Cc1ccc(Cl)c(Cl)c1 | 2.4
CCCC(=O)Nc1ccc2c(c1)C(=O)N(C)[C@@H]1CC[C@H](CC(=O)Nc3cn(C)nc3C)O[C@H]1CO2 | 0.3
COCC(=O)Nc1ccc2c(c1)C(=O)N(C)C[C@H](OC)[C@H](C)CN(CC1CCCCC1)[C@H](C)CO2 | -5.8
CO[C@@H]1CN(C)C(=O)c2cc(NC(=O)C3CCCCC3)ccc2OC[C@H](C)N(C)C[C@@H]1C | -13.3
O=C(Nc1ccccc1)N1CCCCN2[C@H](CO)[C@H](c3ccc(C#CC4CC4)cc3)[C@@H]2C1 | 17.7
O=C(C1CCC1)N1CCCCN2[C@@H](CO)[C@H](c3ccc(C#CC4CCCC4)cc3)[C@@H]2C1 | 5.9
CO[C@@H]1CN(C)C(=O)c2ccc(NC(=O)C3CC3)cc2OC[C@@H](C)N(C)C[C@@H]1C | -9.9
C[C@@H]1CN([C@H](C)CO)C(=O)Cc2cc(NC(=O)NC3CCCCC3)ccc2O[C@H]1CN(C)C | -6.1
COc1ccc(S(=O)(=O)N2CC[C@@H]3[C@H](CO)N(C)c4ccc(-c5ccccc5F)cc4[C@@H]32)cc1 | -13.9
CN1CCN(C(=O)C[C@@H]2CC[C@@H]3[C@H](COC[C@H](O)CN3C(=O)C3CCCC3)O2)CC1 | -15.4
Cc1ccc(S(=O)(=O)Nc2ccc3c(c2)CC(=O)N([C@@H](C)CO)C[C@@H](C)[C@H](CN(C)C(=O)NC2CCCCC2)O3)cc1 | 9.1
C[C@H](CO)N1C[C@H](C)[C@H](CN(C)Cc2ccc(Oc3ccccc3)cc2)Oc2ccc(NC(=O)Cc3ccccc3)cc2C1=O | 3.4
O=C(c1ccc2c(c1)OCO2)N1C[C@H]2[C@@H](c3ccccc31)[C@@H](CO)N2Cc1ccccc1Cl | 10.5
CC(C)C#Cc1ccc([C@@H]2[C@H](CO)N3CCCCN(S(=O)(=O)Cc4ccccc4)C[C@@H]23)cc1 | -9.3
O=C(C1CC1)N1[C@H](CO)[C@@H]2c3ccccc3N(S(=O)(=O)c3ccc(F)cc3)C[C@@H]21 | -2.9
COc1cccc(C(=O)N2C[C@H]3[C@@H](c4ccccc42)[C@@H](CO)N3Cc2ccccc2Cl)c1 | 4.5
CN(C)CC(=O)N1CCCCN2[C@H](CO)[C@@H](c3ccc(-c4cccnc4)cc3)[C@H]2C1 | -16.5
C[C@H]1CN([C@@H](C)CO)C(=O)c2cccc(NC(=O)c3ccncc3)c2O[C@H]1CN(C)S(=O)(=O)c1ccc(F)cc1 | -4.2
COc1ccc(S(=O)(=O)N(C)C[C@H]2Oc3c(NC(=O)c4cnccn4)cccc3C(=O)N([C@@H](C)CO)C[C@H]2C)cc1 | 13.2
CCC(=O)N1[C@@H]2c3cccc(=O)n3C[C@H]1[C@H](CO)[C@H]2C(=O)NC1CCCCC1 | -11.8
COc1cccc(S(=O)(=O)N2CCCCN3[C@H](C2)[C@H](c2ccc(-c4cccnc4)cc2)[C@@H]3CO)c1 | -4.8
O=C(c1cccnc1)N1C[C@H]2[C@@H](c3ccccc31)[C@H](CO)N2Cc1ccc2c(c1)OCO2 | 11.7
COCCN(C[C@@H]1N[C@@H](CO)[C@H]1c1ccc(-c2ccc(F)cc2)cc1)C(C)=O | -2.1
CCCNC(=O)[C@@H]1[C@@H](CO)[C@@H]2Cn3c(ccc(-c4ccccc4OC)c3=O)[C@H]1N2C(=O)NCCC | 0.6
CCCNC(=O)C[C@@H]1CC[C@@H]2[C@H](COC[C@@H](O)CN2C(=O)c2ccccn2)O1 | -13.4
CN(C)CC(=O)Nc1ccc2c(c1)[C@H]1C[C@@H](CC(=O)N(C)C)O[C@H](CO)[C@H]1O2 | -4.1
C[C@@H]1CN([C@@H](C)CO)C(=O)c2cc(NC(=O)Nc3ccc(C(F)(F)F)cc3)ccc2O[C@@H]1CN(C)Cc1ccc(Oc2ccccc2)cc1 | -13.9
CNC[C@H]1Oc2ccc(NS(=O)(=O)c3ccc(Cl)cc3)cc2C(=O)N([C@H](C)CO)C[C@@H]1C | 12.2
COCC#Cc1ccc([C@@H]2[C@@H](CO)N3CCCCN(Cc4cccnc4)C[C@@H]23)cc1 | -3.9
CNC(=O)C[C@@H]1CC[C@@H]2[C@H](COC[C@@H](O)CN2C(=O)Nc2ccc(Cl)c(Cl)c2)O1 | 4.4
CCC(=O)N1[C@@H](CO)[C@@H](c2ccccc2)[C@@H]1CN(CC)C(=O)NC1CCCC1 | 0.6
O=C(c1ccc2c(c1)OCO2)N1CC[C@H]2[C@H](CO)Nc3ccc(-c4ccc(F)cc4)cc3[C@H]21 | -3.8
COc1ccc(CN(C)C[C@H]2Oc3ccc(NS(=O)(=O)c4ccccc4)cc3C(=O)N([C@H](C)CO)C[C@H]2C)cc1 | 7.3
C[C@@H]1CN([C@H](C)CO)C(=O)c2cc(NS(=O)(=O)c3ccccc3)ccc2O[C@H]1CN(C)Cc1ccc(C(F)(F)F)cc1 | 1.7
CC=Cc1ccc2n(c1=O)C[C@H]1[C@H](CO)[C@@H](C(=O)N3CCCCC3)[C@@H]2N1CC1CCCC1 (mixture of isomers) | 11.2
Cc1ccc(-c2ccc3c(c2)O[C@H](CN(C)Cc2ccc(F)cc2)[C@H](C)CN([C@H](C)CO)S3(=O)=O)cc1 | 36.7
Cn1cnc(S(=O)(=O)N2CC[C@@H]3[C@H]2c2cc(-c4ccc(F)cc4)ccc2N[C@@H]3CO)c1 | -18.6
CO[C@@H]1CN(C)C(=O)c2cc(NC(=O)Nc3ccccc3F)ccc2OC[C@@H](C)N(CCC(F)(F)F)C[C@H]1C | -5.2
CCCNC(=O)C[C@H]1C[C@@H]2c3cc(NC(=O)CC4CC4)ccc3O[C@@H]2[C@@H](CO)O1 | 2.5
COc1ccc(NC(=O)N2C[C@H](O)COC[C@H]3O[C@@H](CC(=O)N4CCOCC4)CC[C@@H]32)cc1 | 0.2
C[C@@H]1CN([C@@H](C)CO)C(=O)c2cc(NC(=O)c3ccncc3)ccc2O[C@@H]1CN(C)S(=O)(=O)c1ccccc1 | 21.9
COCC(=O)N1CCCCN2[C@H](C1)[C@@H](c1ccc(-c3ccc(C)cc3)cc1)[C@@H]2CO | 14.8
CO[C@@H]1CN(C)C(=O)c2ccc(NC(=O)C3CCCC3)cc2OC[C@@H](C)N(C)C[C@@H]1C | 6.3
COCC#Cc1ccc([C@@H]2[C@H]3CN(C(=O)CN(C)C)CCCCN3[C@H]2CO)cc1 | 4.7

Reformatted as tab-separated lines: part of the list above.
Molecule	UUG fidelity
Cn1cnc(S(=O)(=O)N2CC[C@@H]3[C@H]2c2cc(-c4ccc(F)cc4)ccc2N[C@@H]3CO)c1	-18.6
CO[C@@H]1CN(C)C(=O)c2cc(NC(=O)Nc3ccccc3F)ccc2OC[C@@H](C)N(CCC(F)(F)F)C[C@H]1C	-5.2
CCCNC(=O)C[C@H]1C[C@@H]2c3cc(NC(=O)CC4CC4)ccc3O[C@@H]2[C@@H](CO)O1	2.5
COc1ccc(NC(=O)N2C[C@H](O)COC[C@H]3O[C@@H](CC(=O)N4CCOCC4)CC[C@@H]32)cc1	0.2

A few values from the entries so far:
UUG fidelity with `CCCNC(=O)C[C@H]1C[C@@H]2c3cc(NC(=O)CC4CC4)ccc3O[C@@H]2[C@@H](CO)O1` stands at 2.5
UUG fidelity with `COCC(=O)N1CCCCN2[C@H](C1)[C@@H](c1ccc(-c3ccc(C)cc3)cc1)[C@@H]2CO` stands at 14.8
UUG fidelity with `COc1ccc(NC(=O)N2C[C@H](O)COC[C@H]3O[C@@H](CC(=O)N4CCOCC4)CC[C@@H]32)cc1` stands at 0.2

Returning to the listing, repeating the four entries before the break.
SMILES | UUG fidelity
C[C@@H]1CN([C@@H](C)CO)C(=O)c2cc(NC(=O)c3ccncc3)ccc2O[C@@H]1CN(C)S(=O)(=O)c1ccccc1 | 21.9
COCC(=O)N1CCCCN2[C@H](C1)[C@@H](c1ccc(-c3ccc(C)cc3)cc1)[C@@H]2CO | 14.8
CO[C@@H]1CN(C)C(=O)c2ccc(NC(=O)C3CCCC3)cc2OC[C@@H](C)N(C)C[C@@H]1C | 6.3
COCC#Cc1ccc([C@@H]2[C@H]3CN(C(=O)CN(C)C)CCCCN3[C@H]2CO)cc1 | 4.7
CN(C[C@@H]1[C@H](c2ccccc2)[C@H](CO)N1C(=O)c1ccccc1)C(=O)C1CC1 | 26.1
CCC(=O)N1[C@@H]2CN(C(=O)NC(C)C)c3ccccc3[C@@H]2[C@@H]1CO | -2.9
C[C@@H]1CN([C@H](C)CO)C(=O)c2cccc(NC(=O)c3ccncc3)c2O[C@@H]1CN(C)C(=O)Nc1ccc(F)cc1 | -11.4
O=C(C[C@H]1CC[C@H]2[C@@H](COC[C@H](O)CN2Cc2ccc(Cl)cc2)O1)Nc1nccs1 | -6.0
C[C@@H]1CN([C@@H](C)CO)C(=O)c2c(c3ccccc3n2C)-c2ccccc2CO[C@H]1CN(C)C(=O)c1ccc(F)cc1 | 1.6
O=C(NC1CCCCC1)[C@H]1[C@H](CO)[C@H]2Cn3c(cccc3=O)[C@H]2N1CCc1ccccc1 | 13.5
CCC(=O)NC[C@H]1[C@H](c2ccc(C3=CCCC3)cc2)[C@H](CO)N1C(C)=O | 16.1
CCCNC(=O)Nc1ccc2c(c1)OC[C@@H](C)N(C(=O)C1CCC1)C[C@@H](C)[C@@H](OC)CN(C)C2=O | 61.7
CO[C@H]1CN(C)C(=O)c2ccc(NS(C)(=O)=O)cc2OC[C@@H](C)N(Cc2cccnc2)C[C@H]1C | -13.5
C[C@@H]1CN([C@@H](C)CO)C(=O)c2cccc(NC(=O)c3ccncc3)c2O[C@@H]1CN(C)S(C)(=O)=O | -11.0
Cc1noc(C)c1NC(=O)Nc1ccc2c(c1)C(=O)N([C@@H](C)CO)C[C@H](C)[C@H](CN(C)C(=O)Nc1ccc(C(F)(F)F)cc1)O2 | -9.7
O=C(Nc1ccccc1F)N1CCCCN2[C@H](CO)[C@H](c3ccc(C#Cc4cccnc4)cc3)[C@@H]2C1 | 11.7
COc1ccccc1-c1ccc2c(c1)[C@@H]1[C@@H](CCN1C(=O)c1ccc3c(c1)OCO3)[C@H](CO)N2 | -18.0
CCC(=O)N1[C@@H](CO)[C@@H]2c3ccccc3N(C(=O)c3cccc(OC)c3)C[C@@H]21 | -8.8
C[C@H]1CN([C@@H](C)CO)C(=O)Cc2cc(NC(=O)Nc3ccccc3)ccc2O[C@H]1CN(C)CC1CCCCC1 | -4.3
CNC[C@H]1Oc2c(NS(=O)(=O)c3ccccc3)cccc2C(=O)N([C@H](C)CO)C[C@H]1C | 0.4
O=C(Nc1ccc(F)cc1)N1CCCCN2[C@@H](CO)[C@H](c3ccc(-c4ccncc4)cc3)[C@@H]2C1 | -0.5
CC(=O)N1CC[C@H]2[C@H](CO)Nc3ccc(-c4ccccc4)cc3[C@H]21 | -4.9
C/C=C/c1ccc([C@H]2[C@@H](CN(C)S(C)(=O)=O)N(C(C)=O)[C@H]2CO)cc1 | -3.5
C[C@H]1CN([C@@H](C)CO)C(=O)c2cccc(NS(=O)(=O)c3cccs3)c2O[C@H]1CN(C)Cc1ccncc1 | -16.5
O=S(=O)(Cc1ccccc1)N1CCCCN2[C@H](CO)[C@H](c3ccc(-c4cccnc4)cc3)[C@@H]2C1 | -2.3
CC(C)NC(=O)N(C)C[C@H]1Oc2ccc(NC(=O)Nc3ccccc3)cc2CC(=O)N([C@@H](C)CO)C[C@@H]1C | -9.9
C[C@@H]1CN([C@@H](C)CO)C(=O)c2cc(NC(=O)C3CC3)ccc2O[C@H]1CN(C)Cc1ccccc1 | -12.3
O=C(Nc1ccccc1F)N1C[C@H]2[C@@H](c3ccccc31)[C@@H](CO)N2C(=O)C1CCOCC1 | 42.2
Cc1ccc(S(=O)(=O)N2CC[C@@H]3[C@@H](CO)Nc4ccc(C#Cc5ccc(F)cc5)cc4[C@@H]32)cc1 | 2.3
Cc1ccc(-c2ccc([C@@H]3[C@@H](CO)N4CCCCN(Cc5cncnc5)C[C@@H]34)cc2)cc1 | -5.6
CC(C)NC(=O)N1C[C@@H]2[C@H](c3ccccc31)[C@H](CO)N2C(=O)c1ccccn1 | 5.0
CCCNC(=O)N1[C@H](CO)[C@@H]2c3ccccc3N(C)C[C@@H]21 | 9.2
CNC[C@@H]1Oc2ccc(NC(=O)NC(C)C)cc2CC(=O)N([C@H](C)CO)C[C@@H]1C | -8.9
O=C(CN1CCOCC1)N1CCCCN2[C@@H](CO)[C@H](c3ccc(-c4ccccc4)cc3)[C@@H]2C1 | -7.2
CN(C)CC#Cc1ccc([C@H]2[C@H](CO)N3CCCCN(S(=O)(=O)c4ccccc4)C[C@@H]23)cc1 | 25.0
COc1ccccc1CNC(=O)C[C@H]1CC[C@H]2[C@@H](COC[C@H](O)CN2C(=O)Nc2ccc(C(F)(F)F)cc2)O1 | -4.5
OC[C@H]1[C@H]2c3ccccc3NC[C@H]2N1Cc1ccccc1Cl | 8.6
COc1ccc(CN(C)C[C@@H]2Oc3ccc(NC(=O)Nc4ccc(F)cc4)cc3CC(=O)N([C@@H](C)CO)C[C@H]2C)cc1 | -0.8
C[C@H]1CN([C@@H](C)CO)C(=O)c2cccc(NS(=O)(=O)c3ccccc3)c2O[C@@H]1CN(C)Cc1ccc(C(F)(F)F)cc1 | -2.3
C[C@@H]1CN([C@H](C)CO)C(=O)c2cccc(NS(=O)(=O)c3ccccc3)c2O[C@@H]1CN(C)Cc1ccccc1 | -8.4
Cc1noc(C)c1NC(=O)Nc1cccc2c1O[C@@H](CN(C)Cc1ccc(-c3ccccc3)cc1)[C@H](C)CN([C@H](C)CO)C2=O | 15.0
C[C@H](CO)N1C[C@H](C)[C@H](CN(C)C)Oc2ccc(NC(=O)Nc3ccc4c(c3)OCO4)cc2CC1=O | -2.2
O=S(=O)(c1ccccc1)N1CCCCN2[C@H](CO)[C@H](c3ccc(C#Cc4cccnc4)cc3)[C@H]2C1 | 5.7
COC(=O)C[C@@H]1CC[C@@H]2[C@@H](COc3ccc(NC(=O)c4ccc(C(F)(F)F)cc4)cc3C(=O)N2C)O1 | 14.2

Compound activity (PubChem BioAssay)
